NPYLR7 ag: agonists of mosquito NPYLR7 receptor, primary screen, cell-based, Aedes aegypti, calcium fluorescence, mosquito biting behavior; Aedes aegypti neuropeptide Y-like receptor 7 (NPYLR7); HEK293T NPYLR7/Galpha15, GCaMP6s calcium fluorescence; activation, % at 10 µM; 270,000 tested, 0.15% active; in the data active means activation above about 40%;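 further: 0% = vehicle and 100% = reference agonist at the receptor; some compounds past the cut are filed as inactive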
NPYLR7 ag max-min: further read-out of NPYLR7 ag, marked with its call; activation, %; measured here: Max-Min RFU normalised activation; some inactives read as strong as hits;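 span of the calcium signal over five minutes; 0% = vehicle and 100% = native peptide agonist; compound fluorescence can raise it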
An asterisk follows results filed as active; & = joins results of further samples.

Values run as follows: NPYLR7 ag	NPYLR7 ag max-min
Cc1ccccc1C(NC(=O)C1CCN(CCc2ccccc2)CC1)c1cnccn1 (stereo not given)
    2.2	-5.6
Cc1nc(C)c(CN2CCC(C(=O)Nc3ccc(Oc4ccccc4F)cc3)CC2)nc1C
    2.7&6.9	-0.9&2.2
COc1ccc2oc(=O)c(-c3nc4ccccc4s3)cc2c1
    15.4	14.0
Cc1cc(C)nc(SCc2c(C(=O)O)nnn2-c2ccccc2)n1
    -4.6	-4.7
OCCOc1cccc(-c2nccn2-c2ccc(-n3cccn3)cc2)c1
    -2.2	-1.2
COc1cc2c(cc1OC)C(C(C)NC(=O)C1CCCC1)N(Cc1cccc(C)c1)CC2 (stereo not given)
    2.8	10.3
Cc1cc(Nc2ccccc2)cc(=O)n1C
    7.9	12.4
O=C(NC1CC1)C1CCN(C(=O)c2c[nH]cc2-c2ccc(Cl)s2)CC1
    12.3	11.2
COCCCN(Cc1c(-c2ccc(F)cc2)noc1N1CCOCC1)C(=O)c1cccc(F)c1
    -6.3	-5.4
CC(C)c1nnc(-c2cc3ccccc3n2CC(=O)Nc2ccccc2C(F)(F)F)o1
    0.4	-0.3
Cc1cccc2c1NC1(CCN(Cc3cccc(C(F)(F)F)c3)CC1)NC2=O
    19.1	14.1
CC1CC(=O)Nc2ccccc2N1C(=O)Cn1cnc2cc(Cl)cc(Cl)c21 (stereo not given)
    -1.0	4.5
Cc1cccc(-c2c(-c3ccccc3)ncn2Cc2sc(C)nc2C)n1
    3.0	1.1
CN(C)c1ccc(/C=C2\N=C(c3ccccc3)OC2=O)cc1Br
    -4.2	1.6
COc1ccc(C(N)c2csc(Nc3ccc(C(F)(F)F)cn3)n2)cc1 (stereo not given)
    0.6	4.0
O=C(/C=C/c1ccccc1)Nc1nc(-c2ccc(F)c(F)c2)cs1
    -0.9	-8.5
CCCC1O[C@@H]2C[C@H]3[C@@H]4CCC5=CC(=O)C=C[C@]5(C)[C@H]4[C@@H](O)C[C@]3(C)[C@]2(C(=O)CO)O1 (stereo not given in full)
    -0.7&-3.6&12.4	-7.1&-6.2&-9.0
CCc1noc(-c2ccc(C)c(NC(=O)C3=CCCCO3)c2)n1
    -20.5	-21.5
COc1ccc(OC2CCN(C(C)=O)CC2)c(C(=O)N(C)Cc2ccccc2)c1
    -1.2	-3.5
CN(CC1OCCO1)C(=O)c1ccc2nc(-c3ccccc3O)[nH]c2c1
    -2.4	-5.1
CC1CCCN(C(=O)Nc2c[nH]c3ccccc23)C1 (stereo not given)
    -0.2	-4.0
Cc1ccc(NC(=O)Cn2nc(C3CC3)c3cnn(-c4ccccc4C)c3c2=O)cc1
    7.1	3.4
COc1cccc(CN2CCC2(C)C(=O)NCCc2ccccn2)c1F (stereo not given)
    7.9	2.4
N=c1sccn1C1SC(=O)N(c2ccccc2)C1=O (stereo not given)
    -6.6	-10.0
CCCCNS(=O)(=O)c1cccc(NS(=O)(=O)c2ccc(C)c(C)c2)c1
    2.8	3.1
Cc1cc(N2CCCN(c3nccc(-c4c(C)nn(C)c4C)n3)CC2)ccn1
    12.1	5.0
C=CCN=c1scc(-c2ccc(C)cc2)n1N=Cc1ccc(F)cc1
    -1.7	-2.9
Clc1ccc2nc(C3CCCN3Cc3nc(-c4ccc5c(c4)OCO5)no3)[nH]c2c1 (stereo not given)
    -5.0	-8.1
COc1ccc(N2CCN(c3cc(C(=O)NCc4ccc(C)o4)c4ccccc4n3)CC2)cc1
    30.2	17.3
CC1(COc2ccc(-c3nc(Cc4ccccc4)no3)cn2)CCCNC1 (stereo not given)
    14.0	3.7

Reformatted in CSV form: seven of the compounds above.
SMILES,NPYLR7 ag,NPYLR7 ag max-min
Cc1nc(C)c(CN2CCC(C(=O)Nc3ccc(Oc4ccccc4F)cc3)CC2)nc1C,2.7&6.9,-0.9&2.2
COc1cccc(CN2CCC2(C)C(=O)NCCc2ccccn2)c1F (stereo not given),7.9,2.4
N=c1sccn1C1SC(=O)N(c2ccccc2)C1=O (stereo not given),-6.6,-10.0
CC1CC(=O)Nc2ccccc2N1C(=O)Cn1cnc2cc(Cl)cc(Cl)c21 (stereo not given),-1.0,4.5
O=C(NC1CC1)C1CCN(C(=O)c2c[nH]cc2-c2ccc(Cl)s2)CC1,12.3,11.2
Cc1cccc(-c2c(-c3ccccc3)ncn2Cc2sc(C)nc2C)n1,3.0,1.1
CC1CCCN(C(=O)Nc2c[nH]c3ccccc23)C1 (stereo not given),-0.2,-4.0

More records follow:
O=c1c2cnn(CCO)c2ncn1Cc1ccc(C(F)(F)F)cc1
  NPYLR7 ag = 18.0; NPYLR7 ag max-min = 9.0
Cc1cccc(Nc2cc3c(cn2)cc(-c2ccccc2)n3C)c1
  NPYLR7 ag = -2.2; NPYLR7 ag max-min = -5.0
Cc1ccc(C2=NNC(=Nc3ccc(F)cc3)SC2)cc1[N+](=O)[O-]
  NPYLR7 ag = 13.5; NPYLR7 ag max-min = 9.3
O=c1ccc(-c2ccc(F)cc2)nn1CCCNS(=O)(=O)c1cccs1
  NPYLR7 ag = -0.6; NPYLR7 ag max-min = -0.9
COc1cc2nc(CN(Cc3ccc4c(c3)OCO4)C3CCCC3)[nH]c(=O)c2cc1OC
  NPYLR7 ag = 3.2; NPYLR7 ag max-min = 0.6
O=C(Nc1ccccc1N1CCCCCC1)C1CCN(c2ccc3nnc(C(F)(F)F)n3n2)CC1
  NPYLR7 ag = -2.4; NPYLR7 ag max-min = -5.1
C=CCN(C(=O)C1Cc2ccccc2C(=O)O1)c1nc(-c2ccc([N+](=O)[O-])cc2)cs1 (stereo not given)
  NPYLR7 ag = 1.7; NPYLR7 ag max-min = 26.5
Cc1cc(C)nc(N(C)CCCc2cnn(C)c2)n1
  NPYLR7 ag = -1.4; NPYLR7 ag max-min = -9.2
Cn1cc(NC(=O)NC2CCCCCC2)c2ccccc21
  NPYLR7 ag = 1.6; NPYLR7 ag max-min = -6.0
Cc1nc(COc2ccccc2C(=O)NC2CCCC2)cs1
  NPYLR7 ag = 7.0; NPYLR7 ag max-min = 4.0
CCCCCC(=O)Nc1c(-c2cc(F)ccc2F)nc2ccccn12
  NPYLR7 ag = -12.6; NPYLR7 ag max-min = -12.1
CC(C)CC(=O)Nc1cc(Br)ccc1S(C)(=O)=O
  NPYLR7 ag = -29.5&2.0; NPYLR7 ag max-min = -27.1&67.8
Cc1cc(C)c2c(c1C(=O)NCc1ccc3ccccc3c1-c1ccccc1)CC(C)(C)C2=O
  NPYLR7 ag = -4.0; NPYLR7 ag max-min = -9.7
CC(C)C(=O)Nc1c2c(nc3c1CCC3)CCC2
  NPYLR7 ag = 11.4; NPYLR7 ag max-min = 8.2
CC(C)(C)c1ccc(-c2cn(-c3ccccc3)c3[n+]2CCCS3)cc1
  NPYLR7 ag = 4.6; NPYLR7 ag max-min = 2.5

COc1ccc(CCNC(=O)c2cccnc2N2CCN(C(=O)c3sccc3Cl)CC2)cc1OC
  NPYLR7 ag = 17.9; NPYLR7 ag max-min = 10.5
COc1ccc(C(NC(=O)C2=NNC(=O)CC2)c2ccncc2)cc1 (stereo not given)
  NPYLR7 ag = 0.8; NPYLR7 ag max-min = 1.7
CCOc1cccc(-c2cccc(-n3cnnc3)c2)c1
  NPYLR7 ag = -1.5; NPYLR7 ag max-min = -2.7
CCOC(=O)N1N=C(c2ccccc2)CC1(O)C(C)(F)F (stereo not given)
  NPYLR7 ag = -4.2; NPYLR7 ag max-min = -4.9
CCOC(=O)C1(Cc2ccccc2F)CCCN(C(=O)CCc2ccc3c(c2)OCO3)C1 (stereo not given)
  NPYLR7 ag = 3.9; NPYLR7 ag max-min = 2.9
N#Cc1ccc(NC(=O)/C=C/c2cnn(-c3ccccc3)n2)cc1
  NPYLR7 ag = 9.0; NPYLR7 ag max-min = 7.8
S=c1nn[nH]n1Cc1ccccc1
  NPYLR7 ag = 4.0; NPYLR7 ag max-min = 4.2
CC1(C(=O)Nc2ccccc2F)CCN1C(=O)c1ccco1 (stereo not given)
  NPYLR7 ag = 1.5; NPYLR7 ag max-min = 0.0
CCCCCCCCCCCC(=O)N1CCSC1c1ccc(OC)c(OCc2ccccc2)c1 (stereo not given)
  NPYLR7 ag = 29.7; NPYLR7 ag max-min = 26.9
c1ccc(-c2nnc3sc(-c4cccs4)nn23)cc1
  NPYLR7 ag = 8.1; NPYLR7 ag max-min = -0.3
O=c1oc2ccccc2cc1-c1nnc(Nc2cccc(C(F)(F)F)c2)s1
  NPYLR7 ag = -4.0; NPYLR7 ag max-min = -7.2
CCC(CC)C(=O)N1CCN(C(=O)c2cn(CC)cc3c(=O)n(-c4ccccc4)nc2-3)CC1
  NPYLR7 ag = 0.9; NPYLR7 ag max-min = -1.4
Cc1cc(C)c(C(=O)CSc2nnc(N3CCCC3)n2CC2CCCO2)cc1C (stereo not given)
  NPYLR7 ag = 1.2; NPYLR7 ag max-min = 0.6
Cc1cc(S(=O)(=O)N2CCCC2C(=O)N2CC(O)CC2C(N)=O)c(C)cc1Cl (stereo not given)
  NPYLR7 ag = -2.2; NPYLR7 ag max-min = -2.8
Cc1ccc(C(C)CCN2CCC(NS(C)(=O)=O)CC2)o1 (stereo not given)
  NPYLR7 ag = -2.1; NPYLR7 ag max-min = -1.9

Quoted at random: 2 compounds from above, in no set order.
CCOc1cccc(-c2cccc(-n3cnnc3)c2)c1
  NPYLR7 ag = -1.5; NPYLR7 ag max-min = -2.7
Cc1cc(S(=O)(=O)N2CCCC2C(=O)N2CC(O)CC2C(N)=O)c(C)cc1Cl (stereo not given)
  NPYLR7 ag = -2.2; NPYLR7 ag max-min = -2.8

One compound at a time, from the list above. Order of values: NPYLR7 ag | NPYLR7 ag max-min
Entry for `COc1ccc(CCNC(=O)c2cccnc2N2CCN(C(=O)c3sccc3Cl)CC2)cc1OC` = 17.9 | 10.5
Entry for `CCCCCCCCCCCC(=O)N1CCSC1c1ccc(OC)c(OCc2ccccc2)c1` (stereo not given) = 29.7 | 26.9
Entry for `N#Cc1ccc(NC(=O)/C=C/c2cnn(-c3ccccc3)n2)cc1` = 9.0 | 7.8
Entry for `Cc1cc(C)c(C(=O)CSc2nnc(N3CCCC3)n2CC2CCCO2)cc1C` (stereo not given) = 1.2 | 0.6

(next part)
CN(CC1CC1)CC1CCN(C2CCN(c3ccccc3Cl)C2=O)C1 (stereo not given)
  NPYLR7 ag = 1.7; NPYLR7 ag max-min = -2.9
O=C(CSc1ncc(-c2ccc(Cl)cc2)o1)Nc1ccnn1C1CCCC1
  NPYLR7 ag = 17.4; NPYLR7 ag max-min = 5.8
Cc1ncsc1CCCNC(=O)CC1C(=O)NCCN1CC(C)C (stereo not given)
  NPYLR7 ag = -0.5&1.5; NPYLR7 ag max-min = -5.3&-1.3
N#Cc1cc2[nH]c3ccccc3c2n(-c2ccc([N+](=O)[O-])cc2)c1=N
  NPYLR7 ag = 0.6&1.9; NPYLR7 ag max-min = 0.0&3.4

Three entries out of the list, ordered by number of heavy atoms, descending.
Cc1cc(S(=O)(=O)N2CCCC2C(=O)N2CC(O)CC2C(N)=O)c(C)cc1Cl (stereo not given)
  NPYLR7 ag = -2.2; NPYLR7 ag max-min = -2.8
O=C(CSc1ncc(-c2ccc(Cl)cc2)o1)Nc1ccnn1C1CCCC1
  NPYLR7 ag = 17.4; NPYLR7 ag max-min = 5.8
N#Cc1cc2[nH]c3ccccc3c2n(-c2ccc([N+](=O)[O-])cc2)c1=N
  NPYLR7 ag = 0.6&1.9; NPYLR7 ag max-min = 0.0&3.4

These rows are one share of the data; the hit share may differ from the screen's.
